Screening data from PubChem BioAssay.
Env fusion inh = inhibitors of HIV Env-mediated cell fusion. HeLa-JRFL Env/CEM21 cell fusion, luciferase. inhibition, % at 12.3 µM. 1.1% of 360,000 active. AID 651610;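 active means mean replicate inhibition score of at least 50 and every replicate individually at or above 50; inconclusive means only one of the two criteria met; inactive means mean below 50 and not all replicates reaching 50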;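 further: 0% = plate neutral controls and 100% = maraviroc near 300 nM; one replicate is shown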
UUG fidelity = yeast start codon fidelity modulation; AID 602363; activity score, % at 18.7 µM; S. cerevisiae UUG-firefly luciferase reporter, luminescence/redox ratio; 0.13% of 350,000 active;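 active means replicate mean at a twofold rise or more, about +100% in these data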;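 further: firefly luciferase made from a UUG start codon reports start codon fidelity; reporter light over untreated wells divided by growth signal over untreated wells; some hits fall short of that in this replicate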
Rce1 inh = yeast Ras-converting enzyme inhibition. calls only. 0.27% of 290,000 active. yeast membranes, quenched prenylated peptide cleavage fluorescence;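 active means fall in fluorescence gain of 50% or more versus controls, with final raw signal at or below 3038400; inconclusive means same 50% fall but final raw signal above 3038400; inactive means fall in fluorescence gain under 50%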;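 further: plate controls were neutral control wells for no effect and wells lacking membranes for full effect; tested at 10 µM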
Target sequence (Q03530 whole entry, looked up): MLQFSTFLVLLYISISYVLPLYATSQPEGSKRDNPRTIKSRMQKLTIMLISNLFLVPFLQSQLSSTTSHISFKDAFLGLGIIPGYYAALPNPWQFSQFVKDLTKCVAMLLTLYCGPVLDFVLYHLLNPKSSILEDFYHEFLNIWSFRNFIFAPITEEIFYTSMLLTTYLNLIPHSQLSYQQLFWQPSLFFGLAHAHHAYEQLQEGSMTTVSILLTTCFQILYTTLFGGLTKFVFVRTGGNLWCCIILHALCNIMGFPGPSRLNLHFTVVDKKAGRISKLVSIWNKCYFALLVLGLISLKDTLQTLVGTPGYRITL
PABP FP inh = PABP-poly(A) binding inhibition. P11940. PABP-poly(A) RNA binding, fluorescence polarization. inhibition, % at 35 µM. 1% of 290,000 active;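 active means 50% or more with normal probe brightness, or confirmed in later tests; inconclusive means above 50% with abnormal brightness, or retests that disagree; inactive means below 50% or failed in later tests; about a fifth of its hits are not listed in these tables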;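 further: calls also rest on retests at 20 µM and on dose response follow-up; controls were probe without protein and protein plus probe with vehicle; some compounds called inactive have numbers as strong as hits; many hits fall short of the cut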
eIF4H FP inh = inhibitors of RNA binding by human eIF4H | Q15056 | eIF4H fluorescence polarization binding assay | inhibition, % at 35 µM | 0.94% of 290,000 active | AID 2012;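 active means 50% or more with normal probe brightness, or confirmed in later tests; inconclusive means above 50% with abnormal brightness, or retests that disagree; inactive means below 50% or failed in later tests; about a fifth of its hits are not listed in these tables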;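 further: calls also rest on retests at 20 µM and on dose response follow-up; 0% = protein and probe with vehicle and 100% = probe without protein; strong numbers were not always called active; many hits fall short of the cut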
MT1-MMP act inh = MT1-MMP (human) activation inhibition. P50281. HT1080 RFP-PRO-GFP cells, GFP/RFP ratio fluorescence, overnight; percent of plate control window, DMSO zero. GFP/RFP ratio change, % at 20 µM. 0.061% of 360,000 active;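 active means GFP/RFP ratio change of at least 30% with cell ATP level not reduced by more than half and red fluorescence within 50% of control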; further: strong numbers were not always called active
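Assay system – RFP-PRO-GFP reporter HT1080 cells · Compound dosing – single dose of 20 µM compound, 1% DMSO final · Incubation – overnight compound exposure at 37 °C · Measure – GFP/RFP fluorescence ratio · Benchmarks – DMSO wells and RFP-L50D-GFP cells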
CSC inhib = cancer stem cell inhibition. 1.1% of 300,000 active. inhibition, % at 7.5 µM. AID 2717. cancer stem cell-like cells viability, luminescence;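 active means mean at 75% or more and at least half the replicates too; inconclusive means mean and replicates disagree; tested in HMLE shEcad cells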;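 further: 0% = median of negative and 100% = median of positive control wells; the first replicate is given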
MT1-MMP act inh RFP = second read-out of MT1-MMP act inh, no call of its own (marks repeat the call); RFP signal change, %; measured here: RFP expression control read;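 0 = vehicle wells; hits needed this value within 50% of zero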
Numbers without * were called inactive; i = inactive; ? = inconclusive; nt = not tested or not shown. This is a subset; count on the stated rates, not on these rows.

SMILES	Env fusion inh	UUG fidelity	Rce1 inh	PABP FP inh	eIF4H FP inh	MT1-MMP act inh	MT1-MMP act inh RFP	CSC inhib
O=C(COC(=O)/C=C/c1ccc([N+](=O)[O-])cc1)Nc1ccc2[nH]c(=O)[nH]c2c1	-6	-12	nt	nt	nt	-1	-4	nt
Cc1nnc(SCC(=O)N2CCN(c3ccccc3)CC2)n1-c1ccccc1	nt	nt	i	-2	-2	-1	0	-7
COC(=O)c1ccc(NC(=S)NCCc2ccc(OC)cc2)cc1	1	-8	i	-2	9	4	-4	-2
NC(=O)CSc1nnc(NC(=O)c2ccc3ccccc3c2)s1	-66	nt	i	nt	nt	7	7	4
Cc1c(NC(=O)Nc2ccc3c(c2)OCO3)c(=O)n(-c2ccccc2)n1C	-6	-17	i	-5	-6	1	6	5
COc1ccc(C)cc1N(C(=O)COc1ccccc1)c1nc2ccccc2s1	-20	-2	i	-8	-1	-10	-7	9
CCc1nc2ccc(C(=O)NCCNC(C)=O)cn2c1N(C)Cc1ccc(OC)cc1	-5	1	nt	nt	nt	1	8	nt
COc1ccccc1C(=O)c1cc2ccc(O)cc2oc1=O	24	1	i	13	5	-9	2	5
O=S(=O)(CCc1nc2ccccc2s1)c1ccc(Cl)cc1	-48	-9	i	-3	-12	-3	3	-15
CCN1CCC(NC(=O)Nc2cc(Cl)ccc2OC)CC1	5	nt	i	6	-2	6	4	-8
CCC1CCCCN1CCCNC(=O)c1csc2c1CCCCC2 (stereo not given)	2	12	i	0	-3	3	4	-4
O=C(CN(Cc1ccccc1F)C(=O)Cn1nnc(-c2cccs2)n1)NC1CCCCC1	-23	-2	i	3	-5	11	7	-8
CCCCCCCCn1c(=O)c(C(=O)OCC)c(O)c2ccccc21	nt	nt	i	11	-1	0	5	0
CC(=O)Nc1ccc(-c2csc(NC(=O)C3CCN(S(=O)(=O)c4cccs4)CC3)n2)cc1	36	nt	i	27	7	3	-16	-1
CS(=O)(=O)Nc1ccc(C(=O)Nc2ccccc2-c2ccccc2)cc1	14	-14	i	-1	1	-1	1	-10
O=C(NNS(=O)(=O)c1ccccc1)c1ccc(F)cc1	-23	-4	i	-3	-4	-2	-1	-8
CC1Sc2ccc(S(=O)(=O)NCCc3ccc(S(N)(=O)=O)cc3)cc2NC1=O (stereo not given)	-35	-7	i	15	1	4	6	-12
CN(CC(=O)Nc1ccc(Cl)c(Cl)c1)C(=O)C1CCCC1	i	-6	nt	nt	nt	5	-2	nt
Cc1c(NC(=O)C2(c3ccccc3)CCCC2)c(=O)n(-c2ccccc2)n1C	15	-11	i	-4	-7	2	3	2
CN(Cc1ccccc1)C(=O)c1ccccc1C(=O)OCC(=O)N(Cc1ccccc1)C(C)(C)C	-54	8	nt	nt	nt	-9	-4	5
COc1cc(CC(=O)Nc2cccc(C(F)(F)F)c2)cc(OC)c1OC	32	nt	i	3	-3	0	-5	-3
COc1ccc(/C=C(\NC(=O)c2ccc([N+](=O)[O-])cc2)C(=O)NCCN2CCOCC2)cc1	1	-1	i	0	-2	0	1	-4
COc1cccc(NC(=O)COc2ccccc2)c1	-12	-12	i	-1	2	2	0	-1
COc1ccc(C(=O)NC(=S)Nc2ccccc2[N+](=O)[O-])cc1OC	-9	nt	i	2	-9	2	-1	nt
Cc1ccc(NS(=O)(=O)c2ccc(C(=O)OCC(=O)NCC3CCCO3)cc2)cc1 (stereo not given)	9	21	i	-1	-4	2	-2	-11
Cc1cc(=O)[nH]c2nnc(SCC(=O)N3CC(C)OC(C)C3)n12 (stereo not given)	0	nt	i	nt	nt	1	3	-7
CCC(=O)N1CCN(c2ccc(NC(=S)NC(=O)c3cc4ccccc4o3)cc2)CC1	7	-15	i	10	5	-6	-28	-3
Cc1cccc2cc(CN(CC3CCCO3)C(=O)c3cccnc3)c3nnnn3c12 (stereo not given)	-17	nt	i	-2	-13	-1	-4	-20
CC(=O)Nc1ccc(S(=O)(=O)N(CCc2ccccc2)CC(=O)N/N=C/c2ccc(C(=O)O)cc2)cc1	-16	nt	i	-2	-1	4	4	-3
COc1ccccc1N1CC(C)C(=O)NC1=S (stereo not given)	nt	-19	i	4	24	-1	3	-3
O=[N+]([O-])c1ccc(CN2[C@H](COCc3ccccc3)[C@@H](N3CCCC3)CS2(=O)=O)cc1	-9	-1	nt	nt	nt	3	-4	nt
CCOCCCn1c(=S)[nH]c2cc(C(=O)NCCOC)ccc2c1=O	-3	-10	i	9	-9	4	6	-9
COc1cc2c(cc1OC)C(CC#N)=NC(C)(C)C2	nt	nt	i	4	2	2	5	-17
O=C(Cc1ccccc1)c1ccc(Cl)cc1	-4	nt	i	-3	-4	2	4	-2
Cc1onc(-c2c(F)cccc2Cl)c1C(=O)NC(C)c1ccccc1 (stereo not given)	-7	-5	i	4	-6	2	3	-10
Cc1cccc(NC(=O)Nc2cnccn2)c1	-12	nt	i	-10	-8	-1	3	-19
CCc1nc2c(OCc3ccc(OC)cc3)cccn2c1N(C)C(=O)c1ccco1	13	-22	nt	nt	nt	-7	1	nt
CCOc1ccc(N2C(=O)S/C(=C\c3cc(OC)c(OC)c(OC)c3)C2=O)cc1	8	-10	i	6	4	2	-2	4
O=C(Cn1[nH]c(=O)c2ccccc2c1=O)NCCN1C(=O)S/C(=C\c2ccccc2)C1=O	nt	-22	nt	nt	nt	-3	-1	-3
COc1ccc(NCc2nc3ccccc3n2CCOc2ccc(C)cc2)cc1	nt	nt	i	0	-1	1	-13	-7
CCCc1nnc(NC(=O)c2c(O)c3c([nH]c2=O)CCCC3)s1	-58	-13	i	-4	-10	12	-2	-5
Cc1ccc(C2CC(c3cccs3)n3nc(N)nc3N2)cc1 (stereo not given)	1	-22	i	3	-4	2	3	3
Oc1ccccc1-c1cc(C(F)(F)C(F)F)nc(-c2ccccc2)n1	-37	-10	i	1	-7	2	8	0
C/C=C/C=[N+](\[O-])C(C)/C(=N/O)c1ccc(F)cc1 (stereo not given)	14	-11	i	3	-9	-1	3	-2
O=C(CC[C@H]1O[C@@H](n2ccc(=O)[nH]c2=O)[C@H](O)[C@@H]1O)N[C@@H](Cc1ccccc1)C(=O)NCc1ccccc1	0	-19	nt	nt	nt	1	1	nt
CCCc1ccc(C(=O)O/N=C(\N)c2ccccn2)cc1	32	-93	i	1	0	-3	3	20
Cc1cc(C)n(CC(=O)Nc2cccc(C(F)(F)F)c2)n1	-1	-10	i	-3	7	-2	2	5
Cc1ccc(N2CCN(C(=O)N3CCCC3)CC2)cc1Cl	22	-9	i	4	-7	0	2	-13
O=C(O)c1ccc(Cl)c(S(=O)(=O)N2CCC(Cc3ccccc3)CC2)c1	?	16	nt	10	-2	4	4	-2
CCN=C1S/C(=C\c2sccc2C)C(=O)N1CC	8	nt	i	-2	-3	1	-3	-2

2 compounds drawn at random from those above, as already listed:
SMILES	Env fusion inh	UUG fidelity	Rce1 inh	PABP FP inh	eIF4H FP inh	MT1-MMP act inh	MT1-MMP act inh RFP	CSC inhib
CN(CC(=O)Nc1ccc(Cl)c(Cl)c1)C(=O)C1CCCC1	i	-6	nt	nt	nt	5	-2	nt
Cc1cc(C)n(CC(=O)Nc2cccc(C(F)(F)F)c2)n1	-1	-10	i	-3	7	-2	2	5

(continued)
SMILES	Env fusion inh	UUG fidelity	Rce1 inh	PABP FP inh	eIF4H FP inh	MT1-MMP act inh	MT1-MMP act inh RFP	CSC inhib
Cc1ccc(N(CC(=O)N2CCOCC2)S(=O)(=O)c2ccccc2)cc1	1	nt	i	-3	-6	4	2	-2
O=C(C1=C(O)C(=O)N(CCOCCO)C1c1cccc([N+](=O)[O-])c1)c1cccs1 (stereo not given)	0	nt	i	7	0	3	7	11
O=C(NCc1ccccc1)c1cc(C2COCCN2C(=O)C2CC2)on1 (stereo not given)	-3	-5	nt	nt	nt	-1	3	nt
CN1CCSc2ccc(C(=O)NCc3ccccc3)cc21	-103	15	i	5	-10	1	3	7
CC(=O)Nc1ccc(-c2ccc(NC(C)=O)c(O)c2)cc1O	-10	-18	i	-4	7	7	3	-6
COc1cc(C2(c3ccc(O)c(OC)c3)C(=O)Nc3c(Br)cc(Br)cc32)ccc1O	-3	12	i	nt	nt	1	0	nt
CC(C(=O)N1CCOCC1)N1C(=O)c2cccc3cccc(c23)C1=O (stereo not given)	3	nt	i	-9	6	-1	0	-5
O=C(Cc1ccccc1)NCC(=O)N/N=C/c1cccs1	21	-6	i	3	-6	-4	-4	-3
COc1ccc(C(=O)c2ccc(OC)cc2OC)cc1	16	-5	i	-12	-6	0	-7	?
O=C(COC(=O)c1cccnc1Cl)Nc1ccc(N2CCCCC2)cc1	-8	-10	nt	nt	nt	4	7	nt
O=c1cc2c(n[nH]1)-c1ccccc1CC2	?	-8	i	2	-1	-2	-4	-5
N#CC(c1ccccc1)c1ccc(=O)[nH]n1 (stereo not given)	-2	nt	i	-2	-3	1	4	2
COc1ccccc1NC(=S)NCc1ccccc1Cl	-164	-19	i	2	0	4	0	-3
O=C(CC1C(=O)NCCN1Cc1cccc(Oc2ccccc2)c1)NCCn1cccn1 (stereo not given)	14	nt	i	15	2	3	4	-12
O=C(Nc1ccccc1)c1cccc(C(=O)Nc2ccccc2)n1	4	-7	i	0	-3	1	-1	-13
C[N+]1(CC2COC3(CCCCC3)O2)CCCC1 (stereo not given)	5	-24	i	-7	9	1	1	-7
COc1ccc(S(=O)(=O)Nc2cccc(-c3ccc(N4CCCCCC4)nn3)c2)c(OC)c1	-27	0	i	9	1	-4	-8	-7
COc1ccc(C(=O)C2CCCN(C(=O)Cc3c(C)noc3C)C2)cc1OC (stereo not given)	2	nt	i	8	7	3	2	nt
Cc1ccc(CNC(=O)[C@H]2O[C@@H](n3cnc4c(N)ncnc43)[C@H](O)[C@@H]2O)o1	-17	-1	nt	nt	nt	1	4	nt
Cc1cc(C)n2nc(C(=O)Nc3ccc4c(c3)OCO4)cc2n1	-74	-10	i	-7	1	3	4	-8
CC(CCn1cccn1)NC(=O)c1cc(COc2ccc(F)cc2Cl)on1 (stereo not given)	-21	-10	i	-2	-6	-1	-3	-10
Cc1ccccc1C(=O)Nc1nncs1	-17	-21	i	1	-14	-3	2	-4
N/C(=N\OC(=O)Oc1ccccc1)c1ccc(Cl)cc1	-7	-9	i	6	-7	3	3	-6
O=C(O)CC1(CC(=O)Nc2ccc(F)c(Cl)c2)CCCCC1	9	-7	nt	4	6	nt	nt	44
COC(=O)C(Cc1ccccc1)NS(=O)(=O)c1ccc(F)cc1Br (stereo not given)	-7	-2	i	1	-10	2	2	-2
Cc1ccc(Oc2cnn(-c3ccccc3)c(=O)c2Br)cc1	-19	nt	i	4	3	0	-1	5
Cc1cccc(NC(=O)c2nc[nH]c2C(=O)N[C@@H](CC(C)C)C(=O)OC(C)(C)C)c1	-21	5	i	3	3	-9	-11	nt
COc1ccccc1OCc1ccc(C(=O)Nc2cc(OC)c(OC)c(OC)c2)o1	8	-24	i	-5	-13	6	0	-6
O=C(/C=C/c1c(F)cccc1Cl)Nc1ccncc1	-5	1	i	4	3	-12	-1	-5
Cc1nn(Cc2ccc(Cl)c(Cl)c2)c(C)c1NC(=O)c1cc(C2CC2)on1	-2	-22	i	-3	9	2	-11	7
Cc1cccc(N2CCN(CCCNC(=O)c3ccc(NC(=O)C4=CSCCO4)cc3)CC2C)c1 (stereo not given)	-1	-4	i	0	-6	-3	-6	-4
COc1ccc(OCCn2c(=O)sc3ccccc32)cc1	-37	nt	i	-4	-9	1	-4	11
CCOC(=O)c1cnn(-c2ccccc2)c1NC(=O)CN1CCCCC1	2	nt	i	-1	-6	0	-1	-14
